NPR1 antag = blocks ANP-stimulated signaling of human Npr1 receptor. P16066. HEK293 hNpr1 GloSensor cGMP, ANP-stimulated luminescence. Potency, µM (series often up to 46.3 µM), inactives show top-dose activity change, negative = inhibition, hits mostly inhibitors. 76,000 tested, 1.6% active. AID 1347048; active = well fitted inhibition curve with a large enough effect; inconclusive = small, poorly fitted or top-dose-only effect; inactive = no such curve, though single readings can be large or run the other way;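 note: nearly all actives have a fitted effect of over 60% in size; nearly all hits also lower the signal before the agonist is added; a reference antagonist and vehicle were the controls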
Target sequence (P16066 whole entry, looked up): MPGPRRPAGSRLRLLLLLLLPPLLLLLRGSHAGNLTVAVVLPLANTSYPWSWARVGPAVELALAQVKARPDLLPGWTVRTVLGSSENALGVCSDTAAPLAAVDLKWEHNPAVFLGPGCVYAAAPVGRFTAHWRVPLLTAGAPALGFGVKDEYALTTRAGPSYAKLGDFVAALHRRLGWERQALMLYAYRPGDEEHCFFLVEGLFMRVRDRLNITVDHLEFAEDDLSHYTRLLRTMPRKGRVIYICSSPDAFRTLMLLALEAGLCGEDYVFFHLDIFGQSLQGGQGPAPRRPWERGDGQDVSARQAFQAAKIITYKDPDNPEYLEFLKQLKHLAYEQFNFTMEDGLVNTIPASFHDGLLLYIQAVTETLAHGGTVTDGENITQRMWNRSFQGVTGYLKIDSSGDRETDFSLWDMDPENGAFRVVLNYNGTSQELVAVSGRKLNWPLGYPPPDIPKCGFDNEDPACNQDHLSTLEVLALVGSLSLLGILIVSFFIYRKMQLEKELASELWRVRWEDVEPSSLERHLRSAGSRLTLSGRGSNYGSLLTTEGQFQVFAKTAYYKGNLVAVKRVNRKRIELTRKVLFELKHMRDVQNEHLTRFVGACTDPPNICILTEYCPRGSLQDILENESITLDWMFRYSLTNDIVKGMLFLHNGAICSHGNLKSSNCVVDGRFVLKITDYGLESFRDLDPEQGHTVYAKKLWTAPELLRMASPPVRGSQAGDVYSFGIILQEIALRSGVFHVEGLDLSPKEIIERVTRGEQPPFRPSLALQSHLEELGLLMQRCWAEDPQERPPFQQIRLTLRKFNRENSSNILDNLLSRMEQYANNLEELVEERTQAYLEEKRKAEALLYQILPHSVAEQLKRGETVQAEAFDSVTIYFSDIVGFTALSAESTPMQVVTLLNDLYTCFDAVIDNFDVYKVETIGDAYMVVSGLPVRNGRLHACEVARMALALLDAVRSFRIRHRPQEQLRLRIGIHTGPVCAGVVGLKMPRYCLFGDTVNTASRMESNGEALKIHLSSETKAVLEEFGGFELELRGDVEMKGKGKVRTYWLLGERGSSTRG
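HEK293 cells stably expressing human Npr1 and cGMP GloSensor pGS-40F, loaded 2 h with 2% GloSensor reagent, given compound 30 min at room temperature. Luminescence read before and 20 min after 0.1 nM hNppA.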
Active calls of the source: *; ? = inconclusive; & = joins results of further samples; [ ] = another dose, or the depositor's remark. % is set by controls: 0 for no effect and ±100 for the full control effect; potency is the fitted concentration of half-maximal effect.

NPR1 antag	SMILES
6%	C=CCN1CCN(C(=O)c2ccc3c(c2)C(O)CCCCCN3CCOC)CC1 (stereo not drawn)
-5%	Cc1ccc(CN2C(=O)NC3(CCN(C(=O)c4ccsc4)CC3)C2=O)cc1
2%	Cn1nc(C(=O)N2CCC3(CCCNC3)C2)c2ccccc21 (stereo not drawn)
-1%	O=C(NCc1cccc(Br)c1)c1noc(-c2ccc(F)cc2)n1
7%	CN(C)C[C@@H]1CN(c2ccccn2)C[C@H]1NC(=O)CCn1cccn1
-20%	CC1=C[C@@H](CNCc2ccncc2)[C@H](C(C)C)C[C@H]1Cc1nnc(-c2ccc(N(C)C)cc2)o1
17%	CC(C)CCN1CC(Oc2cccc(C(=O)N3CCOCC3)c2)C1
-5%[70.6 µM]	Cc1ccccc1[S+](=O)([O-])N1CCC2(CC1)OCCN(Cc1ccccc1)C2=O
-5%	Cn1ccnc1C(=O)N1CCCN(S(=O)(=O)c2ccccc2)CCC(=O)NCC1
2%	Cc1cccc(NC(=O)N2C[C@@H](F)C[C@H]2C(=O)N2CCCCC2)c1C
18%	Cc1ccc(-c2nc(-c3nnn4c3COC(c3ccccc3Cl)C4)no2)s1 (stereo not drawn)
-3%[70.6 µM]	COc1ccc(-c2noc([C@H](C)O)c2C(=O)NC2CC2)cc1
-8%	O=C(NC1CCN(c2cc(-c3cccs3)[nH]n2)CC1)c1cccc(F)c1
-15%	O=C(c1ccc2[nH]ccc2c1)N1CCC2(CC1)N=C(c1cccc(Br)c1)NO2
8%	N#Cc1ccc(C(=O)N2CCCCCCNC(=O)[C@@H]3CCCC[C@@H]32)cc1
-8%	Cc1ccc(NC(=O)c2ccc3c(c2)N(C)C2CCCCN2C3=O)cc1Cl (stereo not drawn)
1%	Cc1cccc(CC(=O)N2[C@@H]3CC[C@H]2CC(NC(=O)c2ccc(F)cc2)C3)c1 (stereo partly drawn)
1%	Cc1cnc(CC2CCCN(Cc3ccc(C#N)cc3)C2)n1C(C)C (stereo not drawn)
2%	CN1Cc2ncnc(N3CCN(c4ncccn4)CC3)c2CN(c2ccccc2)C1=O
8%	O=C(c1ccoc1)N1CCC2(CCN(Cc3ccccn3)CC2)C(CO)C1 (stereo not drawn)

(cont.)
NPR1 antag	SMILES
-2%	Cn1nccc1C(=O)N1CCC(N2C(=O)C3(CCCCC3)C2c2ccccc2)CC1 (stereo not drawn)
4%	CCCC1COCCN1C(=O)c1cccc(CC2CCNCC2)c1 (stereo not drawn)
-16%	CCc1noc(-c2cn(C3CCCN(C(=O)c4cccc(Cl)c4)C3)nn2)n1 (stereo not drawn)
4%	Cc1ccc(C(=O)N2C[C@H](c3nc(-c4ccccc4)no3)[C@@H](C)C2)cn1
0%	Cc1cc(C(=O)N2CC[C@H](NC(=O)c3cnccn3)C[C@H]2C(=O)N[C@H](Cc2ccccc2)C(N)=O)n(C)n1
2%	C[C@@]1(c2ccccc2)CCCCN1C(=O)c1cnc2c(c1)N([S+](=O)([O-])c1cccnc1)CCC2
7%	CC(NC(=O)C(C)(C)C)C(=O)N1CCN(c2ccccn2)CC1 (stereo not drawn)
2%	COCc1nc(C2CCN(C(=O)NCC(=O)OC)C2)no1 (stereo not drawn)
0%	CCC(C)NC(=O)Cn1cccc1-c1nc(-c2ccc(OC)c(F)c2)no1 (stereo not drawn)
7%	Cc1c(NC(=O)c2ccco2)cccc1C(=O)N1CCn2nc(C(=O)O)cc2C1
0%	Cc1ncc2c(c1CNC(=O)c1ccccc1F)CCN(C(=O)Cc1ccc(F)c(F)c1)C2
-5%	O=C(Cc1ccccc1Cl)NC1CCN(c2cc(-c3cccs3)[nH]n2)C1 (stereo not drawn)
-1%[70.6 µM]	CN(C)c1cccc(-c2cc(C(=O)NCCc3ccccn3)c3c(c2)ncn3C)c1
5%	CC1=C[C@@H](CNC(=O)CC2(CC(=O)O)CCCC2)[C@H](C(C)C)C[C@H]1Cc1nc2ccccc2[nH]1
-1%	O=C(Nc1cccnc1)[C@H]1CN(Cc2ccccc2)C[C@H]1C(=O)O
-5%	CN1C(=O)C(CC(=O)NCc2cccs2)Sc2ncccc21 (stereo not drawn)
4%	N#Cc1ccc(C(=O)N[C@@H](Cc2ccccc2)C(=O)N2CCCOCCNC(=O)CC2)cc1
3%[70.6 µM]	COc1ccc(-c2cnc3[nH]cc(CC(=O)NCCc4ccccn4)c3c2)cc1
-12%	CCCOc1ccc(CN2CCCC(COc3ccccc3C(=O)NC3CC3)C2)cc1 (stereo not drawn)
1%	CCOCCCNC(=O)N1CCC(c2noc(-c3cnccn3)n2)C1 (stereo not drawn)

Remaining list, next part:
NPR1 antag	SMILES
0%	O=C(c1nccc2ccccc12)N1CCC2(CC1)NCCc1c2[nH]c2ccccc12
4%	CC(=O)Nc1ccc2nnc(-c3ccc(C(=O)N4CCCCCC4)cc3)n2c1
-8%	COc1cccc(CN2CCC(C(Cc3ccccc3F)N(C)C(=O)c3cccs3)CC2)c1O (stereo not drawn)
2%	O=C(O)c1ccnc(-c2ccnc(NCC(O)c3ccccc3Cl)n2)c1 (stereo not drawn)
-27%	O=C(NCC1CCN(c2cc(-c3ccc(F)cc3)[nH]n2)CC1)c1c[nH]c2ccccc12
5%	COCCOc1ccc2c(n1)CCN(C(=O)c1cc(C)nn1C)C2
-1%	COc1cccc(CN2CCCC3(CCN(C(=O)c4ccc(OC)nc4OC)C3)C2)c1 (stereo not drawn)
-4%[70.6 µM]	O=C1Cc2c(-c3ccc(F)cc3F)n[nH]c2CN1Cc1ccccc1F
6%[70.6 µM]	Cc1ccccc1N1Cc2c(NC3CC3)ncnc2N(C)CC1=O
-1%	CCC(CC)CN1CC2(CCN(C(=O)CCc3nncn3C)CC2)OC1=O
-13%	CCOc1ccccc1C1NC(=O)N(CC(=O)Nc2cc(F)ccc2F)C2=C1C(=O)OC2 (stereo not drawn)
5%	Cc1nc(-c2c3n(c(=O)n(CC(=O)Nc4cccc(C(C)C)c4)c2=O)CCCCC3)no1
-3%	Cc1noc(C)c1CC(=O)N(C)C1CCc2nn(CC3CC3)c(=O)n2CC1 (stereo not drawn)
?	COc1cccc(NC(=O)Nc2cccc(-c3ccc(N4CCOCC4)nn3)c2)c1
3%	C=CCNC(=O)N[C@H]1CCN(C(=O)CC(C)(C)C)[C@@H]1C(=O)N[C@@H](Cc1cccs1)C(N)=O
3%[70.6 µM]	O=C(C[C@@H]1O[C@H](CNC(=O)c2ccccc2)[C@@H](O)[C@H]1O)Nc1ccccc1
2%	Cn1cccc1CN1CCC(N2CC(OCC3CC3)C23CCCCC3)CC1 (stereo not drawn)
1%	COc1ccc(CNC(=O)[C@@H](C)C2CC[C@@]3(C)CC[C@H](NC(=O)c4cncnc4)[C@@H](C)[C@@H]3[C@H]2O)cc1OC (stereo partly drawn)
-7%	Cc1ccc(C2=NC3(CCN(C(=O)Cc4ccccc4C)CC3)ON2)cc1
3%	Cc1cc(C(=O)N(C)CC2CCCN(CCc3ccccc3F)C2)n[nH]1 (stereo not drawn)

(next part)
NPR1 antag	SMILES
-1%	O=C(NCc1ccccc1)N1CCC(N(C(=O)C2CC2)C2CCOCC2)CC1
-23%[70.6 µM]	Cc1nn(-c2ccccc2)c(C)c1[C@@H]1C=C[C@@H](NCc2ccc(F)cc2)C1
-13%	COc1cc(OC)cc(C(=O)N2CCCC(n3cc(-c4nc(C)no4)nn3)C2)c1 (stereo not drawn)
?	COc1ccc(C(=O)N2CCC(n3cc(-c4nc(-c5ccccc5)no4)nn3)CC2)cc1
-4%[70.6 µM]	O=C(N1CCOCC2(C1)CN([S+](=O)([O-])c1ccccc1)C2)C1(c2ccccc2)CC1
6%	O=C(Nc1ccccc1)N1CC(c2nc(CCOCC3CC3)no2)C1
0%	CCNC(=O)N1CCC(Oc2ccccc2-c2nc(-c3cnccn3)no2)C1 (stereo not drawn)
18µM*	Cc1nn(-c2ccc(C(C)(C)C)cc2)c(C)c1[C@@H]1C=C[C@@H](NC(=O)NCc2ccccc2)C1
-15%	O=C(C1CC1)N1CCC2(CC1)CC(N1CCCC1)CCO2 (stereo not drawn)
2%	CCOc1cccc(-c2nnc(CCC(=O)NC(C)c3ccccc3)c(=O)[nH]2)c1 (stereo not drawn)
14%[70.6 µM]	COc1ccc(-n2nc(C3CCN(C(C)=O)CC3)[nH]c2=O)cc1
0%	CCc1noc(-c2ccn3c(CNC(=O)C4CCCCC4)nnc3c2)n1
0%	CCO[C@H]1C[C@@H](O)C12CCN(c1ccnc(OC)c1C#N)CC2
-1%	O=C(CCC1CCCN(S(=O)(=O)c2ccc(F)cc2)C1)NC1CC1 (stereo not drawn)
-1%	O=C(c1ccccn1)N1CCC2(CCCN(Cc3ccc(F)cc3)C2=O)C1 (stereo not drawn)
5%[70.6 µM]	Cc1cc(C(=O)N2CC[C@H]3CC(=O)N(Cc4ccc5c(c4)OCO5)CC[C@H]3C2)no1
0%&3%[70.6 µM]	C#CCNC(=O)C1CN(c2cccc(Cl)c2)C(=O)N1 (stereo not drawn)
-5%[70.6 µM]	COc1cccc(C(=O)N2CCN(c3nc4ncccc4o3)CC2)c1
?	Clc1ccc(CNC[C@H]2Cn3c(-c4cccc(Cl)c4)cnc3CO2)cc1
-5%	O=C(c1ccc(Cn2ccnc2)o1)N1CC2CC(C1)[C@H]1CCCC(=O)N1C2 (stereo partly drawn)

A second format for some results above.
SMILES	NPR1 antag
COc1cc(OC)cc(C(=O)N2CCCC(n3cc(-c4nc(C)no4)nn3)C2)c1 (stereo not drawn)	-13%
COc1ccc(C(=O)N2CCC(n3cc(-c4nc(-c5ccccc5)no4)nn3)CC2)cc1	?
O=C(N1CCOCC2(C1)CN([S+](=O)([O-])c1ccccc1)C2)C1(c2ccccc2)CC1	-4%[70.6 µM]
O=C(Nc1ccccc1)N1CC(c2nc(CCOCC3CC3)no2)C1	6%
CCNC(=O)N1CCC(Oc2ccccc2-c2nc(-c3cnccn3)no2)C1 (stereo not drawn)	0%
Cc1nn(-c2ccc(C(C)(C)C)cc2)c(C)c1[C@@H]1C=C[C@@H](NC(=O)NCc2ccccc2)C1	18µM*
O=C(C1CC1)N1CCC2(CC1)CC(N1CCCC1)CCO2 (stereo not drawn)	-15%
CCOc1cccc(-c2nnc(CCC(=O)NC(C)c3ccccc3)c(=O)[nH]2)c1 (stereo not drawn)	2%
COc1ccc(-n2nc(C3CCN(C(C)=O)CC3)[nH]c2=O)cc1	14%[70.6 µM]
CCc1noc(-c2ccn3c(CNC(=O)C4CCCCC4)nnc3c2)n1	0%
CCO[C@H]1C[C@@H](O)C12CCN(c1ccnc(OC)c1C#N)CC2	0%
O=C(CCC1CCCN(S(=O)(=O)c2ccc(F)cc2)C1)NC1CC1 (stereo not drawn)	-1%
O=C(c1ccccn1)N1CCC2(CCCN(Cc3ccc(F)cc3)C2=O)C1 (stereo not drawn)	-1%
Cc1cc(C(=O)N2CC[C@H]3CC(=O)N(Cc4ccc5c(c4)OCO5)CC[C@H]3C2)no1	5%[70.6 µM]
C#CCNC(=O)C1CN(c2cccc(Cl)c2)C(=O)N1 (stereo not drawn)	0%&3%[70.6 µM]
COc1cccc(C(=O)N2CCN(c3nc4ncccc4o3)CC2)c1	-5%[70.6 µM]

Continued.
NPR1 antag	SMILES
2%	CC(CN1CC2(CCN(C(=O)CN3C(=O)CNC3=O)CC2)OC1=O)c1ccccc1 (stereo not drawn)
-4%	CC1CCN(CC2CCCN(C(=O)c3ccncc3)CC2)CC1 (stereo not drawn)
?	COCc1ccc2c(c1)c(OC(C)(C)C(=O)NC1CC1)nn2CCC(C)C
2%	COC1C(=O)N(c2cccc(F)c2)C12CCN(C(=O)c1cnc(C)cn1)CC2 (stereo not drawn)
-1%	Cc1cc(OC(C)C(=O)N2CCc3c(nc[nH]c3=O)C2)cc(C)c1Cl (stereo not drawn)
-3%	CCn1cc(S(=O)(=O)N2CCCCC2c2nc(C3CC3)n[nH]2)cn1 (stereo not drawn)
-13%	CCOc1cccc(CNC(=O)C2Cn3cccc3C(=O)N2Cc2ccccc2)c1 (stereo not drawn)
-4%	Cc1nn(C)c(C)c1C(=O)N1CCCN(Cc2ccc(F)cc2)C(C(C)C)C1 (stereo not drawn)
1%	Cc1ccc(C(=O)NC[C@H]2O[C@@H](CC(=O)N3CCN(c4ccccn4)CC3)[C@H](O)[C@@H]2O)cc1
0%[70.6 µM]	CS(=O)(=O)c1ccc(-c2cnc([C@@H]3COCCN3C3CCNCC3)[nH]2)cc1
13µM*	O=C(Nc1ccc(Cl)cc1)c1nc2c(o1)CCN(Cc1cc(F)ccc1F)CC2
5%	O=C(Cc1ccccc1)N1CCC(c2noc(-c3cnccn3)n2)C1 (stereo not drawn)
?	Cc1cc(C)c(C#N)c(-c2ccc(C(C)N3CCOCC3)cc2)n1 (stereo not drawn)
6%	Cc1ccc(C(=O)N2CCC3(CC2)CC(=O)c2ccccc2O3)cc1
-2%	COc1cccc(-c2noc(CCCC(=O)N[C@H]3C[C@@H]4OCC[C@H]34)n2)c1
0%[70.6 µM]	CNC(=O)C1(N2CCC[C@H]2C(=O)N2CCC[C@@H]2COC)CCCCC1
-9%	O=C(NC1CCN(c2cc(-c3cccs3)[nH]n2)C1)c1cccc(Cl)c1 (stereo not drawn)
7%[70.6 µM]	COC[C@H]1CCCN1Cc1nc(C2(O)CCN(CCC(C)C)CC2)cs1
1%	COc1cc(OC)c(NC(=O)CN2C(=O)NC3(CCC(C)CC3)C2=O)cc1Cl (stereo not drawn)

An excerpt (hit frequency here may not be typical).
